# Screening data: PubChem BioAssay, National Center for Advancing Translational Sciences (NCATS)
# gsp ag: activates gsp, the McCune-Albright syndrome mutation; gsp mutant cells, cAMP HTRF, 30 min; control for the full effect not named in the record; Potency, µM (series often up to 76.9 µM), without a hit: at the top dose activation (cAMP increase), usual class: activators; actives 0.13% (n = 340,000); AID 624287; active = well fitted activation curve with a large enough effect; inconclusive = small, poorly fitted or top-dose-only effect, or another doubt; inactive = no such curve, though single readings can be large or run the other way; cell line not stated here;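 note: phosphodiesterase inhibitor Ro 20-1724 added with compounds to block cAMP breakdown; potency is the fitted concentration of half-maximal effect; nearly all actives have a fitted effect of over 60% in size; about a fifth of the inactives were tested at one dose only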
#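 Cells in DMEM/10% FBS with G418 were pretreated with compounds in DMSO plus […] (300 uM stock) for 30 min at 37C. cAMP was measured by HTRF (cAMP-d2 plus anti-cAMP antibody-K) after 30 min at room temperature.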
# D2 agonist: human D2 receptor agonism in beta-arrestin assay. P14416. DiscoveRx PathHunter D2 beta-arrestin, luminescence, 90 min; 100% = 57 uM dopamine signal. activation, % (test concentration not listed). actives 0.084% (n = 360,000). AID 624465; in the data active = activation above about 40%; inconclusive = about 15% to 40%; inactive = below about 15%; note: compound concentration not given in the record; the text of the record calls up to 30% inactive
# Target sequence (P14416 whole entry, looked up): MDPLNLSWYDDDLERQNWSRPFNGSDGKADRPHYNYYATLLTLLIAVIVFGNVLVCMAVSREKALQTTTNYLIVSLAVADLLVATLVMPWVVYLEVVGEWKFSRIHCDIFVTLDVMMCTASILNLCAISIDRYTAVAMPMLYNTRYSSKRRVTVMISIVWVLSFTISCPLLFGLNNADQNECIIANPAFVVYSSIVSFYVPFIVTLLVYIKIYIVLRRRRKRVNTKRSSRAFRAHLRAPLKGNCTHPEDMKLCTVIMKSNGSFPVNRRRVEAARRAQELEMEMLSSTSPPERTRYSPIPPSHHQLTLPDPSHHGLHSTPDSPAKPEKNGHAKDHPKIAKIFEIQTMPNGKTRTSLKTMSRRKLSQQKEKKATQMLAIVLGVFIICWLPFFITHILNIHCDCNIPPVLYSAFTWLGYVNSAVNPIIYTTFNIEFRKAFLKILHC
#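 Agonist mode: compounds alone added to overnight-plated D2 PathHunter cells for 90 min at 37 C, with 57 uM final dopamine (EC100) defining full response. Beta-arrestin recruitment detected by chemiluminescent reagent, read after 1 h at ambient temperature.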
# ClpP mod: qHTS Assay for Activators of ClpP. ATP-dependent Clp protease proteolytic subunit (Bacillus subtilis (strain 168)), P80244. purified B. subtilis ClpP, FRET peptide cleavage, 20 min. Potency, µM (highest dose often 57.5 µM), for inactives: at the top dose activity change, negative = active. actives 1.9% (n = 340,000). AID 651965, 2013; active = well fitted falling curve with a large enough effect; inconclusive = small, poorly fitted or top-dose-only effect; inactive = no such curve, though single readings can be large or run the other way; note: potency is the fitted concentration of half-maximal effect; the source files actives as falling curves though it sought activators and does not explain the sign; nearly all actives have a fitted effect of over 65% in size; many hits overshoot -100%
# Target sequence (P80244 whole entry, looked up): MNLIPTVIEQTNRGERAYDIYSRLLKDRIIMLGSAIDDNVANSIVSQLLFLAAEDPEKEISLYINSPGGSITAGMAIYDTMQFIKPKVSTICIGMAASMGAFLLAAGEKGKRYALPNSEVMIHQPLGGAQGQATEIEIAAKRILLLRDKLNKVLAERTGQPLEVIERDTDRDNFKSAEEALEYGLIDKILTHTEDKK
#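 ClpP 10 microg/mL final, pH 8 Tris/KCl buffer with BSA, glycerol, Tween-20; compound pinned in; FRET-FV substrate; RT 20 min; Ex320/Em430; ΔFRET vs ADEP 5.8 microM, DMSO, no enzyme.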
# Sfp PPTase inh: blocks B. subtilis Sfp PPTase activity; Q9F4F7; Biochemical Sfp PPTase activity, qHTS; Potency, µM, for inactives: max response, negative = inhibition, hits mostly inhibitors; actives 3.5% (n = 310,000); AID 1490; active = well fitted inhibition curve with a large enough effect; inconclusive = small, poorly fitted or top-dose-only effect, or another doubt; inactive = no such curve, though single readings can be large or run the other way;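 note: the enzyme is Sfp with the accession as filed and its product quenches rhodamine fluorescence; potency is the fitted concentration of half-maximal effect; 0% = enzyme reaction without inhibitor and -100% = no enzyme wells; top concentration of the series not given in the record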
#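 Fluorescence-quenching assay: 15 nM Sfp-PPTase preincubated 15 min at room temperature with compound, then 5 uM rhodamine-CoA and 12.5 uM BHQ-2-labelled YbbR peptide added. Fluorescence (ex 525/em 598 nm) read at start and after 30 min; difference gives rate.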
# PINK1 modulator: changes PINK1 expression | PINK1 immunofluorescence, high-content cytometry, 24 h | Potency, µM (series often up to 76.6 µM), for inactives: at the highest dose activation (PINK1 increase), most hits filed as activators | actives 0.2% (n = 410,000); active = well fitted activation curve with a large enough effect; inconclusive = small, poorly fitted or top-dose-only effect; inactive = flat fitted curve, though single readings scatter; cell line not stated here;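 note: potency is the fitted concentration of half-maximal effect; % of control where 0% means no effect; nearly all actives have a fitted effect of over 65% in size; a mitochondrial uncoupler was the plate control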
#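 Stable cell line treated 24 h with compounds at 5 concentrations (CCCP controls), then fixed and immunostained for PINK1 plus nuclear and cell stains; PINK1 immunofluorescence quantified by laser-scanning microplate cytometry.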
# Menin-MLL FL inh: displaces fluorescein MLL peptide from human menin; Fluorescence polarization, fluorescein-MLL peptide displacement from menin; FP activity change, % at 61.4 µM; 290,000 tested, under 10 active; AID 1766; inconclusive = falling polarisation curve, or a change in total fluorescence; inactive = total fluorescence flat and polarisation flat or rising; no compound was filed as active; the % refers to the polarisation; negative = inhibition;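 note: % of control where 0% means no effect; inhibitors lower the polarisation; unlabelled MLL peptide was the positive control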
# gsp antag: antagonizes gsp, the McCune-Albright syndrome mutation; gsp-mutant cells, cAMP HTRF, 30 min; control for the full effect not named in the record; Potency, µM (series often up to 76.9 µM), without a hit: top-dose activity change, negative = inhibition, actives largely listed as inhibitors; actives 0.4% (n = 340,000); AID 624288; active = falling curve of any shape with a large fitted effect; inconclusive = falling curve, mostly with a smaller effect; inactive = flat or rising curve; cell line not stated here;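 note: intracellular cAMP measured with PDE inhibitor Ro 20-1724 present during compound exposure; potency is the fitted concentration of half-maximal effect; % is set by controls: 0 for no effect and ±100 for the full control effect; nearly all actives have a fitted effect of over 65% in size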
#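 HTRF cAMP read-out (cAMP-d2 plus anti-cAMP antibody-K in lysis buffer, 30 min RT). Before lysis, cells are exposed to compounds with […] for 30 min at 37C in DPBS containing Ca/Mg, BSA and Tween 20.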
# * hit, by the source's call; ? = inconclusive; . = no result given; & = joins results of further samples; [ ] = dose if it differs, or a comment.
SMILES,gsp ag,D2 agonist,ClpP mod,Sfp PPTase inh,PINK1 modulator,Menin-MLL FL inh,gsp antag
COc1ccc(C2/C=C\CN(Cc3ccco3)CC(=O)N2Cc2ccc(F)cc2)cc1 (configuration not stated),.,-0.4,-2.9%,3.1%,-0.1%,12.3&2.7,2.2%
O=c1[nH]c(=O)c2nnc(N/N=C\c3ccc(O)cc3)nc2[nH]1,-0.9%[15.4 µM],-4.1,.,?,3.7%,-1.6,-0.6%
O=C(Nc1ccc([N+](=O)[O-])cc1)Nn1cnnc1,10.8%,-6.2,-2.3%,-2.9%,0.6%,.,6.4%
COc1ccc(OC)c(NC(=O)c2sc3nc(C)cc(C)c3c2N)c1,-30.3%[inhibitor],-3.2,.,24.0%,6.3%,1.3,8.5%
COc1ccccc1-c1cnc(C(O)c2ccc(Cl)cc2C)[nH]1 (configuration not stated),.,-5.7,-6.4%,.,0.2%,.,.
CCOC(=O)C1=C(COC(=O)C2CC(=O)N(CCc3ccccc3)C2)NC(=O)NC1C (configuration not stated),-10.3%,4.8,0.3%,.,0.1%,.,-3.6%
CCOC(=O)c1[nH]c2c(c1-c1ccccc1)C(=O)CC(c1ccc(Cl)cc1)C2 (configuration not stated),31.3%,0.0,-0.4%,5.2%,5.1%,2.5,-9.0%
COc1cccc(Cn2c(=O)cnc3cnc(Oc4cccc(Cl)c4)nc32)c1,.,.,.,12.9%,5.3%,2.2,.
Cc1ccc(C(=O)N2CCN(Cc3ccc4c(c3)OCO4)CC2)o1,4.0%,3.1,-2.2%,6.7%,-0.2%,-4.2,0.8%
CC(C)(/C=N/O)/[N+]([O-])=C/C=[N+](\[O-])C(C)(C)/C=N/O,16.6%,-0.6,?,-2.0%,-0.7%,1.8,4.5%
COC(=O)CSc1ccccc1C(=O)OC,-11.9%,-1.0,69.6%,8.9%,?,0.7,-1.5%
CN(C(=O)C12CC3CC(CC(C3)C1)C2)C1(C)CCS(=O)(=O)C1 (configuration not stated),20.3%,-4.4,0.2%,11.7%,-0.6%,5.7,16.2%
Cc1ccsc1/C=C/C1=Cc2c(sc(NC(=O)CSc3n[nH]c(N)n3)c2C#N)C(C)(C)C1,-2.4%,-0.1,30.2%,39.8µM*,4.8%[38.3 µM],?,-12.8%
O=C(NCC1CCCO1)C1CCCCN1S(=O)(=O)c1ccc(F)cc1 (configuration not stated),-40.1%[inhibitor],-0.6,-1.2%,5.7%,1.3%,-0.8,9.7%
COC(=O)[C@]1(C)CCC[C@]2(C)c3ccc(C(C)C)cc3C(=O)CC12 (some centres not stated),.,.,.,-10.0%,-1.3%,-0.3,.
CCOC(=O)C1CCN(C(=O)c2cc3cc(F)ccc3[nH]2)CC1,-4.0%[15.4 µM],4.8,.,5.1%,-0.4%,-10.8,6.3%
Cc1ccnc(NS(=O)(=O)c2ccc(NS(=O)(=O)c3cc(Cl)ccc3Cl)cc2)n1,?,8.8,-0.7%,1.8%,0.5%,-4.1,-1.5%
O=C(Nc1nc(-c2nc3ccccc3s2)cs1)c1ccc(S(=O)(=O)N2CCOCC2)cc1,-45.0%[inhibitor],1.7,?,19.1%,1.2%[38.3 µM],-0.5,?
Cc1cc(NN)nc2ccc(Cl)cc12,21.6%,-4.8,.,11.2µM*,-2.6%,-3.6,9.0%
COc1ccc(NS(=O)(=O)c2cccc(C(=O)NN=Cc3ccc(O)c(OC)c3)c2)cc1,9.0%[15.4 µM],-2.1,-0.6%,.,1.2%,.,2.4%
Cc1c(N=N/C(C(=O)Nc2ccccc2)=C(/O)c2ccccc2)c(=O)n(-c2ccccc2)n1C,-1.6%[15.4 µM],-3.3,.,-2.6%,2.3%,?,?
Cc1cc(Br)c2nc3c(c(C(=O)O)c2c1)CCCCC3,157.1%[15.4 µM],-8.4,-2.8%,17.4%,-1.3%,5.9,11.1%
N#Cc1cc2cc3c(cc2nc1SCC(=O)N1CCOCC1)OCCO3,28.0%,4.1,.,0.5%,3.1%,.,?
N#C/C(=C\c1ccc([N+](=O)[O-])o1)C(=O)Nc1ccc(F)cc1,-13.4%[15.4 µM],4.6,.,39.8µM*,19.3%,?,-11.4%
COc1ccc(-c2cc(CCCC(=O)NCCc3ccc(OC)cc3OC)no2)cc1,-0.5%,2.1,0.7%,?,11.2µM*,9.0,?
CCOC(=O)C1=C(COC(=O)CNC(=O)c2ccccc2F)NC(=O)NC1C (configuration not stated),-108.7%[inhibitor],0.3,-7.1%,.,-0.2%,.,2.7%
Cc1cc(SCc2cccc(C(F)(F)F)c2)nc(=O)[nH]1,-27.5%,-2.7,0.5%,15.8%,1.6%,6.1,4.0%
Cc1ccc(-c2nnc(N(C)C(=O)c3ccccn3)s2)cn1,-1.1%,-2.5,11.8%,18.2%,-1.0%,-1.2,6.0%
CCN(CC(=O)Nc1c(F)cccc1F)C(=O)/C=C/c1c(C)nn(-c2ccc(F)cc2)c1C,-2.8%,0.2,3.3%,.,3.1%,.,-6.9%
CNC(=S)NNC(=O)c1cc(C(C)(C)C)nn1Cc1ccc(F)cc1,9.3%,-8.5,.,17.5%,2.8%,0.7,-27.0%
CC1(C)CCc2nc(SCc3ccccc3)c(C#N)cc2C1,32.8%,-2.2,-8.1%,-5.3%,7.0%[38.3 µM],-0.9,3.9%
COc1cc(C(=O)Nc2ccc(S(=O)(=O)Nc3cc(C)on3)cc2)cc(OC)c1OC,-13.6%,-2.6,-0.8%,19.3%,-0.2%,1.8,8.7%
CC(C)(C)OC(=O)NCCCC[C@H](NC(=O)c1nc[nH]c1C(=O)NCc1ccccc1)C(=O)OC(C)(C)C,.,0.8,1.6%,13.6%,3.1%,2.9,-2.7%
COC(=O)c1ccc(NC2=C(Cl)C(=O)OC2OC(=O)c2ccccc2)cc1 (configuration not stated),2.8%,0.0,-2.6%,-17.1%,-0.7%,-4.9,-16.3%
CCC(C)(C)NC(=O)c1cc(S(=O)(=O)N2CCc3ccccc32)cn1C,-4.8%,-4.5,-1.6%,9.1%,2.4%,-4.4,-5.7%
CN(Cc1ccccc1)S(=O)(=O)c1ccc2c(c1)OCCO2,?,-1.1,0.5%,-24.4%,-0.1%,4.0,-24.6%
NC(=O)c1ccc(NC(=O)COC(=O)/C=C/c2ccc(Br)o2)cc1,1.7%,-2.1,-1.2%,.,?,.,9.0%
COc1ccc2cnnc(SCC(=O)Nc3ccccc3)c2c1OC,18.1%,-6.0,-3.1%,-0.7%,6.5%,-1.5,-10.3%
CC1=CC(C)(C)N(C(=O)CSc2nncn2C)c2ccccc21,-33.6%[inhibitor],-0.6,0.8%,20.8%,4.6%[38.3 µM],1.2,-1.9%
CCCCOCCCNC(=O)c1ccc(OC)cc1,-6.5%,-0.9,-12.5%,18.2%,-0.3%,1.0,4.2%
O=C(NCC1CCNCC1)c1ccncc1,-19.0%,-1.6,0.0%,0.9%,1.9%,1.6,4.2%
C=CCn1c(=O)n(CCC#N)c(=O)n(CCC#N)c1=O,-10.4%,-2.8,-2.5%,9.2%,-1.5%,2.2,8.2%
Nc1ccc(S(=O)(=O)Nc2nccc(/C=C/c3ccc(Br)s3)n2)cc1,4.6%[15.4 µM],4.2,.,5.7%,0.9%,12.2,2.0%
Cc1sc2ncnc(SCC(=O)c3ccc4c(c3)OCCO4)c2c1-c1ccccc1,0.8%,2.1,-3.7%,-11.7%,0.5%,4.3,-17.8%
CCCCNC(=S)Nc1ccc(OC)nc1,-49.4%[inhibitor],-2.6,-1.8%,7.5%,-1.0%,?,14.3%
COc1ccccc1-c1cnc(C(O)c2ccc(C(C)(C)C)cc2)[nH]1 (configuration not stated),.,-3.9,-24.4%,.,6.2%,.,.
Cc1[nH]nc2c1C1(CCOCC1)C(C#N)=C(N)O2,8.3%,-4.9,-2.8%,20.9%,5.3%[38.3 µM],-1.2,0.2%
CCCN(C(=O)COc1ccc(C(C)=O)cc1OC)C1CCS(=O)(=O)C1 (configuration not stated),18.0%,1.4,-5.7%,.,1.4%,.,7.2%
O=C(/C=C/c1ccc(Br)o1)OCc1nc2ccsc2c(=O)[nH]1,24.7%,-1.5,-1.5%,.,-0.2%,.,2.8%
C=C(C)Cn1c(CCCNC(=O)CCC)nc2ccccc21,-1.6%,-2.2,-3.1%,9.8%,-0.9%,1.7,2.9%
# (listing goes on)
SMILES,gsp ag,D2 agonist,ClpP mod,Sfp PPTase inh,PINK1 modulator,Menin-MLL FL inh,gsp antag
Cc1ccc(C2C(C(N)=S)=C(N)OC3=C2C(=O)CC(C)(C)C3)cc1 (configuration not stated),21.1%,-1.2,1.7%,3.55µM*,0.5%,3.6,5.4%
CC(N=Cc1cc([N+](=O)[O-])ccc1O)c1ccccc1 (configuration not stated),-69.0%[inhibitor],-6.2,-0.2%,14.4%,0.3%,-3.2,-6.8%
O=C(CCc1c[nH]c2ccccc12)NCC(=O)Nc1ccc(F)c(F)c1F,-10.9%[15.4 µM],0.6,.,18.8%,1.0%,0.5,16.2%
O=C(c1ccc2nc[nH]c2c1)N1CCN(S(=O)(=O)c2cccc(Cl)c2)CC1,-15.5%,-0.4,-26.5%,.,-1.9%,.,3.5%
O=C(N1CCN(c2ncccn2)CC1)C12CC3CC(CC(C3)C1)C2,10.0%,-5.9,.,.,1.5%,.,0.3%
COc1cc(C(c2c(O)cc(C)[nH]c2=O)c2c(O)cc(C)[nH]c2=O)ccc1O,-82.9%[inhibitor],-1.4,.,7.1%,-2.1%,-0.4,3.7%
O=C(CSc1nc2ccccc2o1)Nc1nc(-c2ccccc2)c(-c2ccccc2)s1,0.0%,-4.9,?,11.8%,3.9%,1.8,1.2%
COc1ccc(OC)c(/C=C/C(=O)Nc2ccc3c(c2)CCC3)c1,22.4%,-2.0,-28.8%,8.6%,3.3%,2.8,-13.8%
COC(=O)[C@H](CCSC)NC(=O)NC1CCN(Cc2ccccc2)CC1,5.1%,-1.7,-0.6%,-1.7%,-0.1%,2.4,1.1%
CSCC[C@H](NC(=O)[C@@H]1CSC2c3ccccc3C(=O)N21)C(=O)N1CCC[C@H]1CO (some centres not stated),.,1.0,-0.3%,-5.0%,0.3%,-8.7,0.1%
CCOCCCNC(=O)C(=O)NCCCOCC,-5.2%[15.4 µM],-3.5,-2.4%,17.1%,-0.1%,7.2,16.6%
